# NOMO-1 viab = STK33 inhibitor candidate reducing NOMO-1 cell viability; 37,000 tested, 7.5% active; NOMO-1 AML viability, CellTiter-Glo luminescence, 72 h; inhibition, % (concentration not given with the values);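 active = most replicates above 80%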;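 note: wells of about 30 µL received 25 nL stock; 0% = median of vehicle wells and 100% = reference inhibitor level; the first replicate is given; inactives centre near 10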
# The depositor's hits bear a star. An excerpt; rates above refer to the full screens.
SMILES	NOMO-1 viab
C[C@@H]1CCCCO[C@H](CN(C)C(=O)Nc2ccc(F)cc2)[C@@H](C)CN([C@H](C)CO)C(=O)c2cc(NC(=O)CCC(F)(F)F)ccc2O1	3.8
COc1ccc(S(=O)(=O)N(C)C[C@@H]2Oc3ccc(NC(=O)C4CCCCC4)cc3C(=O)N([C@H](C)CO)C[C@@H]2C)cc1	16.9
C[C@@H]1CN([C@H](C)CO)C(=O)Cc2cc(NS(=O)(=O)c3cn(C)cn3)ccc2O[C@H]1CN(C)S(=O)(=O)c1ccc(Cl)cc1	24.5
COc1ccc(NC(=O)Nc2ccc3c(c2)CC(=O)N([C@@H](C)CO)C[C@@H](C)[C@@H](CN(C)S(=O)(=O)c2c(C)noc2C)O3)cc1	8.1
COC(=O)c1ccccc1NC(=O)C(C)NS(=O)(=O)c1ccc(F)cc1 (stereo unspecified)	6.5
C[C@H](CO)N1C[C@H](C)[C@H](CN(C)S(=O)(=O)c2ccccc2)Oc2ccc(NC(=O)Nc3ccc(C(F)(F)F)cc3)cc2CC1=O	127.7*
COc1cc(-c2coc3cc(O[C@@H]4O[C@H](CO)[C@@H](O)[C@H](O)[C@H]4O)c(OC)c(O)c3c2=O)cc(O)c1OC	-24.0
O=C(Oc1ccccc1)Oc1ccc2oc(=O)sc2c1	45.7
C[C@@H]1CCCCO[C@@H](CN(C)S(=O)(=O)c2cccs2)[C@@H](C)CN([C@H](C)CO)C(=O)c2cc(NC(=O)C3CCCCC3)ccc2O1	42.3
C[C@@H]1CN([C@@H](C)CO)C(=O)c2cc(NS(C)(=O)=O)ccc2O[C@@H]1CN(C)Cc1ccc(C(=O)O)cc1	-3.6
CC(=O)c1cc(C)ccc1OC(=O)CCN1C(=O)c2ccccc2C1=O	8.5
Cc1cc(C(=O)Nc2cccc3c2O[C@@H](CN(C)C(=O)Nc2c(C)noc2C)[C@@H](C)CN([C@@H](C)CO)C3=O)n(C)n1	-17.4
CCOC(=O)C1(c2csc(N)n2)COC(=O)C1 (stereo unspecified)	-9.9
O=C1Nc2ccc(S(=O)(=O)NCc3ccccn3)c3cccc1c23	-7.1
Cc1noc(C)c1S(=O)(=O)Nc1ccc2c(c1)C(=O)N([C@H](C)CO)C[C@H](C)[C@H](CN(C)C(=O)Nc1ccc(C(F)(F)F)cc1)O2	3.4
O=C(NCc1ccccn1)c1ccccc1O	-22.9
C[C@H]1CN([C@@H](C)CO)C(=O)Cc2cc(NS(=O)(=O)c3cccs3)ccc2O[C@H]1CN(C)S(=O)(=O)c1cn(C)cn1	-6.9
Cc1ccc(N(C(C)C(=O)O)S(C)(=O)=O)cc1C (stereo unspecified)	21.6
COc1ccc(S(=O)(=O)N(C)C[C@H]2Oc3c(NC(=O)c4cnccn4)cccc3C(=O)N([C@@H](C)CO)C[C@@H]2C)cc1	-11.9
C[C@@H]1CN([C@@H](C)CO)C(=O)c2cccc(NC(=O)c3ccncc3)c2O[C@@H]1CN(C)Cc1ccc2c(c1)OCO2	23.2
CNC[C@H]1OCCCC[C@@H](C)Oc2ccc(NC(=O)CCCN(C)C)cc2C(=O)N([C@H](C)CO)C[C@@H]1C	10.2
Cc1ccc(S(=O)(=O)N(C)C[C@@H]2Oc3ccc(NC(=O)Nc4ccccc4)cc3C(=O)N([C@@H](C)CO)C[C@H]2C)cc1	23.6
Cc1noc(C)c1NC(=O)N(C)C[C@@H]1Oc2c(NC(=O)Nc3cccc4ccccc34)cccc2C(=O)N([C@@H](C)CO)C[C@H]1C	-2.3
CN(CC(=O)Nc1ccc(F)cc1)S(=O)(=O)c1ccccc1	12.1
FC(F)(F)C1CCN(c2ncccc2NC(=S)Nc2ccc(Cl)cc2)CC1	39.8
Cc1cc(C)cc(NC(=O)CSc2nnc(-c3ccncc3)n2-c2ccccc2)c1	32.1
O=C(O)CSc1nnc(C2CC2)n1-c1ccccc1	13.7
C[C@H]1CN([C@@H](C)CO)C(=O)c2cc(NC(=O)CCC(F)(F)F)ccc2O[C@@H]1CN(C)S(=O)(=O)c1cccs1	3.1
C[C@H](CO)N1C[C@H](C)[C@H](CN(C)C(=O)Nc2ccc(F)cc2)Oc2ccc(NS(C)(=O)=O)cc2C1=O	-10.3
O=C(NCCSc1nc2cc(C(F)(F)F)ccc2s1)C12CC3CC(CC(C3)C1)C2	18.4

SMILES	NOMO-1 viab
C[C@@H]1CN([C@@H](C)CO)C(=O)c2cc(NS(C)(=O)=O)ccc2O[C@@H]1CN(C)Cc1ccc(Cl)c(Cl)c1	9.0
O=C(/C=C/c1ccccc1)CC(O)(c1ccccc1)C(F)(F)F (stereo unspecified)	121.9*
CCn1c(SCC(=O)Nc2ccc(C(N)=O)cc2)nnc1-c1ccc(F)cc1	-16.8
C[C@H]1CN([C@@H](C)CO)C(=O)Cc2cc(NC(=O)c3ccncc3)ccc2O[C@H]1CN(C)Cc1ccc(Cl)c(Cl)c1	68.7
COc1ccc(-c2nnc(SCc3ccc([N+](=O)[O-])c(OC)c3)n2-c2ccccc2)cc1	41.1
C[C@@H]1CN([C@@H](C)CO)C(=O)c2cccc(NC(=O)c3ccncc3)c2O[C@@H]1CN(C)C(=O)NC1CCCCC1	-12.4
O=C(COc1ccccc1)Nc1ccc2oc(-c3cccc(I)c3)nc2c1	26.9
Cc1cccc(C)c1NC(=O)CSc1nnnn1-c1c(C)cccc1C	34.1
Cc1noc(C)c1NC(=O)N(C)C[C@H]1Oc2ccc(NS(=O)(=O)c3cn(C)cn3)cc2CC(=O)N([C@@H](C)CO)C[C@H]1C	3.6
Cc1noc(C)c1NC(=O)N(C)C[C@@H]1Oc2ccc(NC(=O)Cc3cn(C)c4ccccc34)cc2C(=O)N([C@H](C)CO)C[C@H]1C	-17.1
COc1ccc(NC(=O)c2cccnc2C(=O)O)c(OC)c1	-10.1
COc1ccc(S(=O)(=O)Nc2ccc3c(c2)CC(=O)N([C@@H](C)CO)C[C@H](C)[C@H](CN(C)S(=O)(=O)c2c(C)noc2C)O3)cc1	8.8
Cc1ccc(Oc2ccc(NC(=O)CCCC(=O)O)cc2)cc1C	-13.2
O=c1c(O[C@@H]2O[C@H](CO)[C@H](O)[C@H](O)[C@H]2O)c(-c2ccc(O)cc2)oc2cc(O)cc(O)c12	-7.5
CC1CCCC(C)N1S(=O)(=O)c1ccc(NC(=O)CCn2cnc3ccccc3c2=O)cc1 (stereo unspecified)	15.2
C[C@@H]1CN([C@H](C)CO)C(=O)c2cc(NC(=O)Cc3cn(C)c4ccccc34)ccc2O[C@H]1CN(C)Cc1ccc(C(F)(F)F)cc1	30.6
C[C@@H]1CN([C@@H](C)CO)C(=O)c2cc(NC(=O)NC3CCCCC3)ccc2O[C@@H]1CN(C)Cc1ccc(-c2ccccc2)cc1	116.6*
Cc1noc(C)c1NC(=O)N(C)C[C@H]1Oc2ccc(NC(=O)C3CCCCC3)cc2C(=O)N([C@H](C)CO)C[C@@H]1C	12.4
C[C@@H]1CN([C@@H](C)CO)C(=O)c2cc(NS(=O)(=O)c3cccs3)ccc2O[C@H]1CN(C)C(=O)Nc1ccc(F)cc1	0.6
C[C@@H]1CN([C@H](C)CO)C(=O)Cc2cc(NC(=O)NC3CCCCC3)ccc2O[C@H]1CN(C)C(=O)Nc1ccccc1	1.4
CCN1CCCC1CNC(=O)c1cc(NC(C)=O)c(N(C)C)cc1OC (stereo unspecified)	-27.4
COC(=O)C1=C(C)NC2=C(C(=O)CC(C)(C)C2)C1c1ccncc1 (stereo unspecified)	-6.0
Cc1ccc(NC(=O)CSc2nnc(N)s2)c(Br)c1	-16.4
CCN1C(=O)C(O)(CC(=O)c2ccco2)c2cc(Br)ccc21 (stereo unspecified)	122.2*
Cc1ccc(OCC(=O)Nc2ccccc2-c2nc3ccccc3s2)cc1C	22.9
COc1ccc(CCNC(=O)c2cc(-c3ccccn3)nc3c(Cl)cccc23)cc1OC	22.1
C[C@@H]1CN([C@@H](C)CO)C(=O)c2cccc(NS(=O)(=O)c3cn(C)cn3)c2O[C@H]1CN(C)Cc1ccc(Cl)c(Cl)c1	5.4
Cc1cc(C)c(S(=O)(=O)NCC(=O)Nc2ccc(Br)cc2)c(C)c1	32.6
CC(=O)c1cccc(NC(=O)CSc2nc3ccccc3c(=O)n2-c2ccccc2)c1	14.2
C[C@@H]1CN([C@@H](C)CO)C(=O)c2cc(NC(=O)Nc3ccc(F)cc3)ccc2O[C@H]1CN(C)Cc1ccc(-c2ccccc2)cc1	128.3*

# 4 entries drawn at random from the list so far, as already listed:
SMILES	NOMO-1 viab
C[C@@H]1CN([C@@H](C)CO)C(=O)c2cc(NS(=O)(=O)c3cccs3)ccc2O[C@H]1CN(C)C(=O)Nc1ccc(F)cc1	0.6
C[C@@H]1CN([C@@H](C)CO)C(=O)c2cccc(NS(=O)(=O)c3cn(C)cn3)c2O[C@H]1CN(C)Cc1ccc(Cl)c(Cl)c1	5.4
C[C@H]1CN([C@@H](C)CO)C(=O)Cc2cc(NC(=O)c3ccncc3)ccc2O[C@H]1CN(C)Cc1ccc(Cl)c(Cl)c1	68.7
Cc1ccc(NC(=O)CSc2nnc(N)s2)c(Br)c1	-16.4

# Some of these compounds in order of heavy-atom count, descending:
SMILES	NOMO-1 viab
COc1ccc(S(=O)(=O)Nc2ccc3c(c2)CC(=O)N([C@@H](C)CO)C[C@H](C)[C@H](CN(C)S(=O)(=O)c2c(C)noc2C)O3)cc1	8.8
COc1ccc(-c2nnc(SCc3ccc([N+](=O)[O-])c(OC)c3)n2-c2ccccc2)cc1	41.1
Cc1ccc(OCC(=O)Nc2ccccc2-c2nc3ccccc3s2)cc1C	22.9
Cc1ccc(NC(=O)CSc2nnc(N)s2)c(Br)c1	-16.4

# Going on with the list:
SMILES	NOMO-1 viab
CC(C)NC(=O)Nc1ccc2c(c1)CC(=O)N([C@H](C)CO)C[C@H](C)[C@H](CN(C)CC1CCCCC1)O2	34.7
CO/N=C(\C(=O)NC1C(=O)N2C(C(=O)OCOC(=O)C(C)(C)C)=C(/C=C\c3scnc3C)CSC12)c1csc(N)n1 (stereo unspecified)	15.3
C[C@@H]1CCCCO[C@@H](CN(C)Cc2ccncc2)[C@@H](C)CN([C@H](C)CO)C(=O)c2cc(NC(=O)Nc3ccccc3)ccc2O1	-4.6
CCOC(=O)c1ccc2[nH]c(C)c(CN3CCN(C)CC3)c(=O)c2c1	-10.3
C[C@H]1CN([C@@H](C)CO)C(=O)Cc2cc(NC(=O)Nc3ccc(F)cc3)ccc2O[C@@H]1CN(C)CC1CCCCC1	98.7*
C=C1C(=O)O[C@@H]2/C=C(/C)[C@@H]3C/C=C(/C[C@@H](OC(=O)/C(=C/CO)CO)[C@@H]12)C[C@@](O)(C(C)C)C(=O)O3	107.5*
CS(=O)(=O)N(CC(=O)Nc1ccc(F)cc1F)c1ccc2c(c1)OCCO2	12.1
CCOC(=O)c1c(NC(=O)C23CCC(C)(C(=O)O2)C3(C)C)sc2c1CCCC2 (stereo unspecified)	33.9
NC(=O)c1ccccc1NC(=O)CS(=O)(=O)Cc1ccccc1	-17.1
COC(=O)c1cc(NC(=O)CSc2nc(C)nc3sc4c(c23)CCC4)cc(C(=O)OC)c1	19.4
C[C@H]1CN([C@@H](C)CO)C(=O)c2cc(NS(=O)(=O)c3ccc(F)cc3)ccc2O[C@H]1CN(C)C	-10.0
O=C(CSc1nnnn1-c1ccccc1)Nc1ccc(Br)cc1F	13.1
CCOc1ccccc1NC(=O)Cc1coc2ccc(C)cc12	-10.2
COc1ccc(NC(=O)N(C)C[C@H]2Oc3c(NC(=O)Nc4ccccc4)cccc3C(=O)N([C@H](C)CO)C[C@@H]2C)cc1	-11.1
Cc1cc(Cl)c(OCCCSc2nc(C)cc(=O)[nH]2)c(Br)c1	-5.8
C[C@H](CO)N1C[C@H](C)[C@@H](CN(C)C(=O)NC2CCCCC2)Oc2c(NC(=O)Nc3cccc4ccccc34)cccc2C1=O	43.7
C[C@H](CO)N1C[C@H](C)[C@@H](CN(C)Cc2ccc(Oc3ccccc3)cc2)Oc2c(NC(=O)Nc3ccc4c(c3)OCO4)cccc2C1=O	60.0
COc1ccc(CN(C)C[C@@H]2Oc3c(NC(=O)Nc4ccc(F)cc4)cccc3C(=O)N([C@H](C)CO)C[C@H]2C)cc1	94.2*
CCc1c(C)[nH]n(-c2ccc(Oc3ccccc3)c(S(=O)(=O)O)c2)c1=O	21.6
CCOC(=O)C1CCCN(Cc2ccccc2)C1 (stereo unspecified)	6.3
C[C@@H]1CN([C@H](C)CO)C(=O)c2cc(NS(=O)(=O)c3ccccc3)ccc2O[C@H]1CN(C)S(=O)(=O)c1cn(C)cn1	2.0
Cc1noc(C)c1NC(=O)N(C)C[C@@H]1Oc2c(NC(=O)Nc3ccccc3)cccc2C(=O)N([C@@H](C)CO)C[C@H]1C	-3.7
Cc1c(Br)c([N+](=O)[O-])nn1CC(=O)NCc1ccccc1	9.1
COc1ccc(S(=O)(=O)NCCc2c[nH]c3ccccc23)c2ccccc12	32.3
O=C(Nc1ccc(S(=O)(=O)NCC2CCCO2)cc1)C1CCCO1 (stereo unspecified)	26.5
Cc1ccc(NC(=O)COc2ccccc2)c(NC(=O)c2ccccc2I)c1	-2.5
Cn1ncc(C#N)c1NC(=O)C1CC(c2c(F)cccc2Cl)=NO1 (stereo unspecified)	-7.1
COc1ccc(C2Oc3c(OC)cc(CCCO)cc3C2CO)cc1OC1OC(CO)C(O)C(O)C1O (stereo unspecified)	6.3
COc1ccc(S(=O)(=O)Nc2ccc3c(c2)C(=O)N([C@@H](C)CO)C[C@H](C)[C@@H](CN(C)S(=O)(=O)c2ccc(F)cc2)O3)cc1	15.3
CNc1nc2c(Cl)cc(Cl)cc2s1	10.6
COc1ccc(S(=O)(=O)N(C)C[C@H]2Oc3ccc(NC(=O)C4CCCCC4)cc3C(=O)N([C@H](C)CO)C[C@@H]2C)cc1	33.2

# From PubChem
